# Screening results (PubChem)
# AF4-AF9 inh – inhibitors of AF4 peptide binding to AF9, primary screen, biochemical, AlphaScreen, biotin-AF4 peptide, FLAG-AF9, single point. Protein AF-9 (Homo sapiens), P42568. inhibition, % at 10 µM. hit rate 0.47% among 350,000;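 active = every replicate reaching a set inhibition limit, whatever the replicate mean, cut at about 25% in these data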;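 note: 0% = plate neutral control median and 100% = total signal loss; the record names both 10 and 1 µM as test concentration; the first replicate is given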
# Target sequence (P42568 whole entry, looked up): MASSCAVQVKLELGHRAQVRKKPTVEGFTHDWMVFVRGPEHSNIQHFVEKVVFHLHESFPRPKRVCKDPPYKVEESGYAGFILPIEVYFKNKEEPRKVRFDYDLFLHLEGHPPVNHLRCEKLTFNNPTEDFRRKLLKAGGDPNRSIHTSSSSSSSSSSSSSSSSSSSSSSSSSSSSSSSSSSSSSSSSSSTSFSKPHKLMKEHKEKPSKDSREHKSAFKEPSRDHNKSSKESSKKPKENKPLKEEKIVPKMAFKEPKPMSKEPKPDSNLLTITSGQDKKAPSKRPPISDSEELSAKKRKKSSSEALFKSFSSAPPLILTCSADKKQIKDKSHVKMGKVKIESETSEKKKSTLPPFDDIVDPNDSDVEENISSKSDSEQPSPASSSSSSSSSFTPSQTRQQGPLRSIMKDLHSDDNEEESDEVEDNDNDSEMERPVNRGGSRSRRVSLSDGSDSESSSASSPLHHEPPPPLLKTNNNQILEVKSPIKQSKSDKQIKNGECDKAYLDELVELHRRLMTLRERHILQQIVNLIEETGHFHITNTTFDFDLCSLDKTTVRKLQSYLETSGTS
# rRNA inh HTS – reduced GFP signal of wild-type E. coli, primary screen, bacterial rRNA inhibitor project, GFP/RFP fluorescence, OD600, single point; E. coli WT GFP vs humanized-ribosome RFP mutants, 24 h; stronger effect = lower value; DMSO median 0, no signal -100; GFP signal change (wild-type ribosome), % (test concentration not listed); hit rate 1.6% among 350,000;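 active = significant combined selectivity score with lowered wild-type GFP, culture density cut under 30%, mutant RFP and density less affected; inactive = any of these conditions unmet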; note: one replicate is shown; some compounds called inactive have numbers as strong as hits
# rRNA inh HTS OD600 – also measured in rRNA inh HTS; calls as there; OD600 change, %; measured here: OD600 growth;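 optical density of the mix in the first replicate; 0 = DMSO median and -100 = no signal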
# rRNA inh HTS RFP – recorded beside rRNA inh HTS, whose call it bears; RFP signal change, %; measured here: RFP humanized mutant strains;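 first replicate; 0 = DMSO median and -100 = no signal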
# * hit, by the source's call; & = joins results of further samples. Some of the compounds tested, so the mix of outcomes need not match the whole.
1: Cc1ccc(S(=O)(=O)Nc2ccc3c(c2)CC(=O)N([C@@H](C)CO)C[C@H](C)[C@@H](CN(C)C(=O)Nc2ccc4c(c2)OCO4)O3)cc1
2: COc1ccc(CN(C)C[C@@H]2Oc3c(NC(=O)NC(C)C)cccc3C(=O)N([C@H](C)CO)C[C@@H]2C)cc1
3: CO[C@@H]1CN(C)C(=O)c2ccc(NC(C)=O)cc2OC[C@H](C)N(C(=O)c2ccccn2)C[C@H]1C
4: COc1ccc(-c2cnc3c(c2)C(=O)N([C@H](C)CO)C[C@@H](C)[C@H](CN(C)C(=O)Cc2ccccc2)O3)cc1
5: C/C=C/c1ccc([C@@H]2[C@@H](CO)N(C(=O)CN(C)C)C23CN(C(=O)C2CCC2)C3)cc1
6: Cc1noc(C)c1NC(=O)N[C@H]1CC[C@H](CC(=O)NCc2ccc(Cl)c(Cl)c2)O[C@@H]1CO
7: C[C@@H]1CN([C@@H](C)CO)C(=O)c2cccc(NC(=O)C3CC3)c2O[C@@H]1CN(C)C(=O)NC1CCCCC1
8: Cc1nc(Cc2nnc(SC(C)C(=O)Nc3ccccc3)o2)cs1 (configuration not stated)
Compound	1	2	3	4	5	6	7	8
AF4-AF9 inh	1.4	-2.2	-2.6	0.3	1.7	0.6	-3.0	-0.9
rRNA inh HTS	0	2	3	-9	0	1	1	8
rRNA inh HTS OD600	-5	8	5	-9	5	2	-2	29
rRNA inh HTS RFP	-1.2	0.8	-1.7	1.6	0.9	0.1	0.3	-2.0

9: N#C[C@@H]1[C@@H](c2ccccc2C2=CCCC2)[C@H](CO)N1C(=O)Cc1ccncc1
10: Cc1noc(C)c1NC(=O)N(C)C[C@H]1Oc2ccc(N(C)C)cc2C(=O)N([C@H](C)CO)C[C@@H]1C
11: COC(=O)C[C@H]1C[C@H]2c3cc(NC(=O)Nc4ccccc4F)ccc3O[C@H]2[C@H](CO)O1
12: COc1ccccc1-c1cn(CC[C@@H]2CC[C@@H](NS(=O)(=O)c3ccccc3C)[C@@H](CO)O2)nn1
13: CN(C)CC#Cc1ccc([C@@H]2[C@@H](CO)N3C(=O)CN(C(=O)c4cccnc4)C[C@H]23)cc1
14: C[C@@H]1CN([C@H](C)CO)C(=O)c2cc(NS(=O)(=O)c3ccccc3)ccc2O[C@@H](C)CCCCO[C@H]1CN(C)C(=O)NC1CCCCC1
15: COc1cc([N+](=O)[O-])c(OC)cc1Nc1ccccc1C(=O)O
16: COc1ccc(-c2ccc([C@H]3[C@H](CO)N4C(=O)CN(C(=O)c5ccccn5)C[C@@H]34)cc2)cc1
Compound	9	10	11	12	13	14	15	16
AF4-AF9 inh	-1.4	-7.9	3.1	-4.5	2.3	0.9	3.1	-3.3
rRNA inh HTS	-4	-1	-7	-9	2	-7	-11	0
rRNA inh HTS OD600	-11	5	1	-7	11	-8	-19	21
rRNA inh HTS RFP	-0.8	-1.2	8.5	1.8	-1.7	5.2	7.0	1.3

# Retrieved by structure from the list above:
12: COc1ccccc1-c1cn(CC[C@@H]2CC[C@@H](NS(=O)(=O)c3ccccc3C)[C@@H](CO)O2)nn1
16: COc1ccc(-c2ccc([C@H]3[C@H](CO)N4C(=O)CN(C(=O)c5ccccn5)C[C@@H]34)cc2)cc1
13: CN(C)CC#Cc1ccc([C@@H]2[C@@H](CO)N3C(=O)CN(C(=O)c4cccnc4)C[C@H]23)cc1
Compound	12	16	13
AF4-AF9 inh	-4.5	-3.3	2.3
rRNA inh HTS	-9	0	2
rRNA inh HTS OD600	-7	21	11
rRNA inh HTS RFP	1.8	1.3	-1.7

# The listing picks up; the 2 compounds before the break are reprinted first.
15: COc1cc([N+](=O)[O-])c(OC)cc1Nc1ccccc1C(=O)O
16: COc1ccc(-c2ccc([C@H]3[C@H](CO)N4C(=O)CN(C(=O)c5ccccn5)C[C@@H]34)cc2)cc1
17: O=C1CN(S(=O)(=O)c2cccc(F)c2)C[C@H]2[C@H](c3ccc(C4=CCCC4)cc3)[C@@H](CO)N12
18: COc1ccccc1S(=O)(=O)N[C@H]1CC[C@@H](CCn2cc(C3CCCCC3)nn2)O[C@H]1CO
19: COCC#Cc1ccc2c(c1)O[C@@H](CN(C)C(=O)Nc1ccccc1F)[C@H](C)CN([C@H](C)CO)S2(=O)=O
20: COc1ccc2c3c(n(C)c2c1)[C@@H](CO)N(C(=O)C1CCCC1)CC31CCN(Cc2cccc(F)c2)CC1
21: CNC(=O)C[C@@H]1CC[C@@H]2[C@@H](COc3ccc(NC(=O)Nc4ccc(F)cc4)cc3C(=O)N2C)O1
22: Cc1ccc(S(=O)(=O)N[C@H]2C=C[C@@H](CC(=O)NCc3ccccc3F)O[C@@H]2CO)cc1
23: Cc1cccc(-c2ccc([C@H]3[C@H]4CN(C(=O)NC5CCCCC5)CC(=O)N4[C@H]3CO)cc2)c1
24: CC(C)C#Cc1ccc2c(c1)O[C@@H](CN(C)C(=O)c1cnccn1)[C@H](C)CN([C@H](C)CO)S2(=O)=O
Compound	15	16	17	18	19	20	21	22	23	24
AF4-AF9 inh	3.1	-3.3	0.1	-6.0	-0.3	38*	-1.8	3.7	0.9	-1.9
rRNA inh HTS	-11	0	-1	-5	-1	-12	1	-1	-1	-5
rRNA inh HTS OD600	-19	21	0	-12	-11	-62	-2	-7	-43	-5
rRNA inh HTS RFP	7.0	1.3	-2.4	0.3	0.0	42	-0.2	-0.7	28	-0.1

# Record cards, as listed above. Order of screens: AF4-AF9 inh	rRNA inh HTS	rRNA inh HTS OD600	rRNA inh HTS RFP
# Entry for COCC#Cc1ccc2c(c1)O[C@@H](CN(C)C(=O)Nc1ccccc1F)[C@H](C)CN([C@H](C)CO)S2(=O)=O : -0.3	-1	-11	0.0
# Entry for CC(C)C#Cc1ccc2c(c1)O[C@@H](CN(C)C(=O)c1cnccn1)[C@H](C)CN([C@H](C)CO)S2(=O)=O : -1.9	-5	-5	-0.1
# Entry for CNC(=O)C[C@@H]1CC[C@@H]2[C@@H](COc3ccc(NC(=O)Nc4ccc(F)cc4)cc3C(=O)N2C)O1 : -1.8	1	-2	-0.2

# Further structures.
25: CC(C)NC(=O)Nc1ccc2c(c1)C(=O)N([C@H](C)CO)C[C@H](C)[C@H](CN(C)C(=O)CCC(F)(F)F)OCCCC[C@H](C)O2
26: C[C@@H]1CN([C@@H](C)CO)C(=O)c2cc(NC(=O)NC3CCCCC3)ccc2O[C@@H](C)CCCCO[C@@H]1CN(C)C(=O)Nc1ccccc1
27: CCCNC(=O)N1[C@H](C#N)[C@@H](c2ccc(/C=C/c3ccccc3)cc2)[C@H]1CO
28: C[C@H]1CN([C@@H](C)CO)C(=O)c2cccc(NC(=O)C3CCCCC3)c2O[C@@H]1CN(C)S(=O)(=O)c1ccc(Cl)cc1
29: O=C(Nc1ccccc1Cl)N1C[C@H]2[C@@H](c3ccccc31)[C@@H](CO)N2C(=O)c1cccnc1
30: COc1ccc(OC)c(NC(=O)C2(C)CCN2Cc2ccc(OC)c3ccccc23)c1 (configuration not stated)
31: COc1ccc(S(=O)(=O)N(C)C[C@@H]2Oc3ccc(NS(C)(=O)=O)cc3CC(=O)N([C@H](C)CO)C[C@@H]2C)cc1
32: COCC(=O)N(C)C[C@H]1Oc2ncc(-c3cccc(OC)c3)cc2C(=O)N([C@@H](C)CO)C[C@@H]1C
Compound	25	26	27	28	29	30	31	32
AF4-AF9 inh	-8.0	-1.6	-0.2	-0.4	-1.6	3.6	-2.4	-0.8
rRNA inh HTS	-1	3	-5	1	3	10	2	3
rRNA inh HTS OD600	1	2	10	8	-4	12	9	15
rRNA inh HTS RFP	-3.9	-0.4	-2.3	2.7	1.7	-0.2	-0.2	-2.8

33: Cc1noc(C)c1NC(=O)Nc1cccc2c1O[C@@H](CN(C)CC1CCCCC1)[C@H](C)CN([C@@H](C)CO)C2=O
34: CN(C)CC(=O)N1[C@H](CO)[C@H](c2ccccc2-c2ccccc2F)[C@@H]1C#N
35: O=C(Nc1ccccc1F)N1C[C@@H]2[C@H](c3ccccc31)[C@H](CO)N2C(=O)c1ccccn1
36: C[C@H]1CN([C@@H](C)CO)C(=O)CCCn2cc(nn2)CO[C@@H]1CN(C)Cc1ccc(Oc2ccccc2)cc1
37: COCCn1c(C(=O)N(C)C)cc2c1C[C@H]1CN(C(=O)c3ccccc3)[C@@](Cc3ccc(F)cc3)(C(=O)OC)[C@@H]21
38: CSc1ccc(NC(=O)C2(C)CCN2C(=O)c2sccc2C)cc1 (configuration not stated)
39: O=C(Nc1cccc(F)c1)N1CC(=O)N2[C@@H](CO)[C@@H](c3ccc(-c4ccc(F)cc4)cc3)[C@@H]2C1
40: O=C(C[C@@H]1CC[C@H]2[C@@H](COC[C@@H](O)CN2C(=O)c2ccncc2)O1)NCc1ccc(-c2ccccc2)cc1
Compound	33	34	35	36	37	38	39	40
AF4-AF9 inh	0.0	-0.9	-18	0.7	6.5	1.5	-6.9	3.7
rRNA inh HTS	2	1	-34	4	9	-19	-55	0
rRNA inh HTS OD600	0	6	-54	6	8	-32	-71	9
rRNA inh HTS RFP	-0.2	-0.2	-6.2	1.0	2.9	-0.9	-9.0	-1.0

# Next section.
No.	smiles	AF4-AF9 inh	rRNA inh HTS	rRNA inh HTS OD600	rRNA inh HTS RFP
41	COCC(=O)NC[C@@H]1[C@@H](c2ccccc2)[C@H](CO)N1C(=O)c1ccccc1	-0.8	-2	6	-0.2
42	COc1ccccc1S(=O)(=O)N(C)C[C@H]1OCc2ccccc2-c2ccccc2C(=O)N([C@@H](C)CO)C[C@H]1C	-4.1	-1	1	0.9
43	CCCNC(=O)N[C@@H]1C=C[C@H](CC(=O)NC2CCCCC2)O[C@H]1CO	-0.5	-1	-3	0.1
44	COc1cccc(C(NC(C)=O)c2nc(-c3ccc(C)c(C)c3)cs2)c1 (configuration not stated)	-1.8	16	-27	14
45	C[C@@H]1CN([C@H](C)CO)S(=O)(=O)c2ccc(/C=C/c3ccccc3)cc2O[C@H]1CN(C)C(=O)c1cccnc1	6.6	2	-15	-1.0
46	CO[C@@H]1CN(C)C(=O)c2cc(NC(C)=O)ccc2OC[C@H](C)NC[C@H]1C	-0.9	1	2	13
47	COc1ccc(NC(=O)N(C)C[C@H]2Oc3c(NS(=O)(=O)c4ccc(C)cc4)cccc3C(=O)N([C@H](C)CO)C[C@@H]2C)cc1	-5.2	0	-1	-1.2
48	O=C(C[C@@H]1CC[C@H]2[C@@H](COC[C@@H](O)CN2S(=O)(=O)c2ccccc2F)O1)NCc1ccccc1F	-3.7	-5	2	-1.1
49	CNC[C@@H]1Oc2ccc(NC(=O)Nc3ccc(F)cc3)cc2CC(=O)N([C@@H](C)CO)C[C@H]1C	0.3	1	1	1.5
50	C[C@H](NC(=O)C[C@@H]1CC[C@H](NC(=O)C2CCC2)[C@@H](CO)O1)c1ccccc1	-2.1	-1	-5	-1.5
51	O=S1(=O)CC(N2CCN(CCO)CC2)CN1Cc1cn(Cc2ccccc2)nn1 (configuration not stated)	0.6	20	10	1.3
52	C[C@H](CO)N1C[C@H](C)[C@H](CN(C)C(=O)C2CCCCC2)Oc2ncc(C#CC3CCCC3)cc2C1=O	-2.0	4	-7	13
53	O=C(C1CCOCC1)N1C[C@@H]2N[C@H](C1)C2c1ccc(-c2cncnc2)cc1 (some centres not stated)	-2.0&-2.9	4&7	17&15	-1.0&-2.9
54	Cc1ccc(S(=O)(=O)N2CCN(C(=O)CN3C(=O)NC(C)(CCC(C)C)C3=O)CC2)c(C)c1 (configuration not stated)	-2.9	-1	-7	0.0
55	O=C(NC[C@@H]1N[C@@H](CO)[C@@H]1c1ccccc1)c1ccccc1F	-2.7	0	0	-1.2
56	C[C@@H]1CN([C@@H](C)CO)C(=O)c2cc(NS(=O)(=O)c3ccccc3)ccc2O[C@@H](C)CCCCO[C@@H]1CN(C)S(=O)(=O)c1ccc(Cl)cc1	-1.2	-2	0	-0.7
57	Cn1c(Cc2ccccc2)nc(=O)c2ccccc21	-2.0	3	6	1.8
58	CN(N=Nc1nc[nH]c1C(=O)NN)C1CCCCC1	-3.6	13	9	2.9
59	C[C@@H]1CN([C@H](C)CO)S(=O)(=O)c2ccc(C#Cc3ccc(F)cc3)cc2O[C@H]1CN(C)S(=O)(=O)c1ccc(F)cc1	-2.9	2	8	-2.3
60	C[C@H]1CN([C@@H](C)CO)C(=O)c2ccccc2-c2ccccc2CO[C@H]1CN(C)S(=O)(=O)c1ccsc1	0.4	-2	-12	-1.8
61	C[C@@H]1CN([C@@H](C)CO)S(=O)(=O)c2ccc(C3=CCCCC3)cc2O[C@H]1CN(C)Cc1ccccn1	8.0	-23	-44	9.0
62	C[C@@H]1CN([C@H](C)CO)C(=O)Cc2cc(NC(=O)NC3CCCCC3)ccc2O[C@H]1CN(C)C(=O)Nc1ccc(C(F)(F)F)cc1	-4.2	-7	-3	2.8
63	CCCNC(=O)[C@@H]1[C@@H](CO)[C@@H]2Cn3c(ccc(-c4ccccc4)c3=O)[C@H]1N2C(=O)CC	-4.3	1	4	0.6
64	CCCC#Cc1ccc2c(c1)O[C@H](CN(C)C(=O)c1ccccn1)[C@H](C)CN([C@H](C)CO)S2(=O)=O	1.7	1	-7	-2.5
65	COc1ccc(-c2cnc3c(c2)C(=O)N([C@@H](C)CO)C[C@H](C)[C@H](CN(C)Cc2cccnc2)O3)cc1	-3.3	-2	13	-2.5
66	CCCNC(=O)[C@@H]1[C@@H](CO)[C@@H]2Cn3c(cccc3=O)[C@H]1N2S(=O)(=O)c1ccccc1C	-1.7	3	4	1.6
67	CC(C)C#Cc1ccc2c(c1)O[C@@H](CN(C)C(=O)Cc1ccccn1)[C@@H](C)CN([C@H](C)CO)S2(=O)=O	2.3	2	11	-2.6
